Mtb bLac sens: beta-lactam sensitization of Mtb H37Rv | M. tuberculosis H37Rv growth with meropenem, percent inhibition; hits of this screen are not shown here | inhibition, % at 25 µM | 330,000 tested, 0.27% active;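 active = about 74% or more and at least 40 points above the plate without the antibiotic, then above 30% in a dose series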;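 also: growth measured after seven days incubation then overnight dye step; 0% = bacteria only wells and 100% = bacteria with antibiotic; twin plates without the antibiotic show which effects depend on it; some results filed as inactive read as strong as hits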
Mtb H37Rv: M. tuberculosis H37Rv growth inhibitors, H37Rv strain (AID 1626). M. tuberculosis H37Rv growth inhibition; higher % means a stronger effect. one-dose inhibition, % at 10 µM; IC50 in µM for titrated hits. 220,000 tested, 0.95% active;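 active = confirmed in a dose series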;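 also: bacteria incubated seven days before Alamar blue readout; 0% = bacteria only wells and 100% = bacteria with antibiotic wells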
YopH PTP inh: inhibitors of Yersinia enterocolitica YopH tyrosine phosphatase. fluorescence Ex485/Em525. inhibition, %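 (about 10 µM by stock and volumes)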. 140,000 tested, 0.16% active. AID 898;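 active = inhibition of 50% or more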;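 also: controls were vehicle for no effect and minimum signal wells for full effect; inactives centre near -20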
Arbovirus anti: antivirals against arbovirus infection | arbovirus infection cell-based antiviral screen | inhibition, % at 10 µM | 200,000 tested, 0.37% active | AID 1251;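 active = inhibition from about 30%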;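 also: bluetongue infection of BSR cells; cell survival read as ATP light after 72 h; 0% = infected wells without compound and 100% = uninfected wells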
RecA splice inh: inhibitors of M. tuberculosis RecA intein splicing. cell-free RecA intein splicing, fluorescence. 290,000 tested, 0.75% active. inhibition, %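 (about 9 µM by stock and volumes)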; in the data active = inhibition above about 30%;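 also: 0% = vehicle wells and 100% = reference inhibitor control wells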
Target sequence (P9WHJ3 whole entry, looked up, canonical isoform): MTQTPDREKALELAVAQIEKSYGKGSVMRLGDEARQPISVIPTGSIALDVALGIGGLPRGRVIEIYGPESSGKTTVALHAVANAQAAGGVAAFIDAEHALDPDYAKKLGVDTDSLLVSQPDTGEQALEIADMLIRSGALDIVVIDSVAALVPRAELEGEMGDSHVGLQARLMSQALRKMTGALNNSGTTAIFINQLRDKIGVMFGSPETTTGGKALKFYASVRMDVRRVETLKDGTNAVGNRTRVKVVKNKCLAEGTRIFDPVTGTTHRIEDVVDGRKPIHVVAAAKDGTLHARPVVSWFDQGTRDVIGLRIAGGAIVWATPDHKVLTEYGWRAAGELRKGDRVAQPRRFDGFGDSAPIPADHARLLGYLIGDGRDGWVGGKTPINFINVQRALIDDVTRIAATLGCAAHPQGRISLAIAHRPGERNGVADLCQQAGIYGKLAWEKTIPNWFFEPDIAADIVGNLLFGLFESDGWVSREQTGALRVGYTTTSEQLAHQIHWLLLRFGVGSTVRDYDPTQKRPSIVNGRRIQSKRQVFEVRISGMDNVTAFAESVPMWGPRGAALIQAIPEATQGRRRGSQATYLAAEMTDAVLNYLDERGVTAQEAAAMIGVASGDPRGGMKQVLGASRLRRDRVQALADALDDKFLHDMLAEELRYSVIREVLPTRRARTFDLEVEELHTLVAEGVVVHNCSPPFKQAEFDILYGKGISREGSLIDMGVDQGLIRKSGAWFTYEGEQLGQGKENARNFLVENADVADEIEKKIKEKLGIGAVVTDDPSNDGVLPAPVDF
Arbovirus anti repeat: second read-out of Arbovirus anti, no call of its own (marks repeat the call); inhibition, %; measured here: 10K subset replicate screen; many hits read low in the repeat;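 first of two repeat runs on a subset; 0% = infected and 100% = uninfected wells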
Numbers without * were called inactive; · = no result given; & = joins results of further samples. Only part of the results is shown; the hit share may differ from the screen's.

Preview:
SMILES | Mtb bLac sens | Mtb H37Rv | YopH PTP inh | Arbovirus anti | RecA splice inh | others
COC(=O)c1cc(=O)[nH]c(SCc2cccc(C)c2)n1 | 6 | · | -17 | 19 | 3.0 | Arbovirus anti repeat=1
O=C(O)c1ccccc1Sc1ncnc2sccc12 | 0 | 1% | · | · | -2.1
CN(C)c1ccc(NC(=O)CSc2nc3ccccc3c(=O)n2CC2CCCO2)cc1 (centres undefined) | -6 | · | · | · | -0.7
O=C(Nc1ccc2c(c1)OCCO2)c1ccc(Cl)c(S(=O)(=O)N2CCOCC2)c1 | 4 | 2% | -41 | 3 | 2.3
CCN(CC)CCCN=C(N)N | -3 | 0% | · | · | 0.1

The list itself, previewed entries included:
SMILES | Mtb bLac sens | Mtb H37Rv | YopH PTP inh | Arbovirus anti | RecA splice inh | others
COC(=O)c1cc(=O)[nH]c(SCc2cccc(C)c2)n1 | 6 | · | -17 | 19 | 3.0 | Arbovirus anti repeat=1
O=C(O)c1ccccc1Sc1ncnc2sccc12 | 0 | 1% | · | · | -2.1
CN(C)c1ccc(NC(=O)CSc2nc3ccccc3c(=O)n2CC2CCCO2)cc1 (centres undefined) | -6 | · | · | · | -0.7
O=C(Nc1ccc2c(c1)OCCO2)c1ccc(Cl)c(S(=O)(=O)N2CCOCC2)c1 | 4 | 2% | -41 | 3 | 2.3
CCN(CC)CCCN=C(N)N | -3 | 0% | · | · | 0.1
Cc1cccc(C)c1NCc1nnc(SCC(=O)Nc2nc(-c3ccccc3)cs2)n1-c1ccccc1 | 71 | 0% | -20 | 0 | 0.6
Cc1cc(-c2ccccc2)nc(N(C)C)c1S(C)(=O)=O | 0 | 1% | · | 4 | 0.0
COc1ccc(C(=O)N/C(=C\c2cn(C)c3ccccc23)C(=O)NCCCn2ccnc2)cc1OC | 0 | · | · | · | -0.8
COC(=O)Cc1c(C)c2ccc(O)c(CNCc3ccc(OC)c(OC)c3)c2oc1=O | -1 | · | · | · | -187
CSc1cc(CS(=O)(=O)c2ccccc2)nc(-c2ccccc2)n1 | 1 | · | · | · | 2.5
COC(=O)C1=C(C(=O)c2ccccc2)C(c2cccs2)n2nnnc2N1 (centres undefined) | -4 | 1% | 1 | 4 | 1.7
COCCNC(=O)CSc1nc2cc(OC)c(OC)cc2c(=O)n1CCc1ccc(S(N)(=O)=O)cc1 | 0 | 4% | · | 19 | -0.3
O=C(NCCN1C(=O)S/C(=C\c2ccc(Cl)cc2Cl)C1=O)C1=COCCO1 | -2 | · | · | · | 2.9
CC(C)(C)C(=O)NC(=O)Nc1ccccc1C(F)(F)F | -4 | -9% | · | · | -1.5
OC(COc1ccc(OCC(O)CN2CCCCC2)cc1)CN1CCCCC1 (centres undefined) | 1 | · | · | · | -3.1
CC(O)(C#CCN1CCCC1)c1ccccc1 (centres undefined) | 0 | 0% | -24 | 6 | -1.1
COc1ccc2c(c1)-c1c(ssc1=S)C(C)(C)N2C(=O)CSC1=NCCS1 | -3 | -7% | -13 | -1 | 24
COc1ccc(NC(=O)c2cc(-c3ccco3)on2)cc1OC | 5 | · | · | · | -0.7
COC(=O)NC1CSCC1OC(=O)c1ccc(Br)cc1 (centres undefined) | -7 | -4% | 0 | 2 | -1.0
COc1ccc(NC(=O)O/N=C2/CCCc3ccc(OC)cc32)cc1 | 54 | 0% | -16 | -1 | 6.6
Cc1cc2cc(CNC(=S)Nc3ccc(OC(F)F)cc3)ccc2[nH]1 | -4 | 16% | -32 | -8 | 4.2
CCN(CC)S(=O)(=O)c1ccc(C(=O)NCCCN=C2NS(=O)(=O)c3ccccc32)cc1 | -4 | -6% | -2 | 4 | -0.6
CC1CCN(S(=O)(=O)c2ccc3c(c2)NC(=O)CS3)CC1 | 6 | · | · | · | 1.6
C=CCNC(=O)c1c(C(F)(F)F)nn(C)c1Cl | 2 | 0% | · | 6 | 1.8
CC(=O)c1c(C)[nH]c(C(=O)Nc2c(C)n(C)n(-c3ccccc3)c2=O)c1C | -2 | 6% | -35 | -1 | -0.5
Cc1ccc(C(=O)N/C(=C/c2ccc(N(C)C)cc2)C(=O)NCC2CCCO2)cc1 (centres undefined) | 1 | · | · | · | -12
CCOC(=O)C1C2C=CC3(CN(Cc4ccco4)C(=O)C13)O2 (centres undefined) | -13 | -13% | -19 | 4 | -1.5
Cc1nccn1S(=O)(=O)c1cc([N+](=O)[O-])ccc1Cl | -1 | 2% | -24 | 6 | -4.0
Cc1ccc(C(=O)NCCCN2CCOCC2)o1 | -13 | 1% | -5 | 7 | -2.9
C[C@@H]1C(=O)O[C@@H]2CC34[C@H]5C[C@@H](C(C)(C)C)C36[C@H](OC(=O)[C@@H]6O)OC4(C(=O)O5)[C@@]12O (some centres undefined) | -3 | 0% | -13 | 2 | 1.5
CC(=O)Nc1ccc(S(=O)(=O)Nc2nccs2)cc1 | -1 | · | · | · | 2.6
COc1ccc(OCC(=O)Nc2ccc(NC(=O)c3cccs3)cc2)cc1 | 1 | · | · | · | -3.5
O=C1Nc2ccccc2/C1=C\c1cccn1-c1ccc(OC(F)(F)F)cc1 | 95 | 37% | -5 | -7 | 11
O=c1nccc(SCc2ccc(Cl)cc2Cl)[nH]1 | -6 | -9% | · | · | 1.3
Cc1ccc(S(=O)(=O)NC2=NCN(CC(=O)O)CN2)cc1 | 4 | · | · | · | -1.3
O=C(COC(=O)c1cnccn1)c1ccc(Br)cc1 | 1 | -6% | -34 | 2 | 0.5 | Arbovirus anti repeat=1
COc1ccc(OC)c(C2C(C(C)=O)=C(O)C(=O)N2c2ccc(F)cc2)c1 (centres undefined) | 9 | -5% | -28 | 2 | 2.2
CCn1nnc(-c2ccccc2NC(=O)c2cc(OC)c(OC)c(OC)c2)n1 | 1 | 33% | 11 | -4 | 0.0
CCOc1ccc2cc(S(=O)(=O)N3CCOCC3)ccc2c1 | 4 | 12% | 4 | -2 | -0.1
O=C(CCS(=O)(=O)c1ccccc1)OCC(=O)N1CCN(S(=O)(=O)c2ccc(Cl)cc2)CC1 | 2 | · | · | · | 0.6
Brc1ccc(CSc2nnc3ccccn23)cc1 | -2 | -4% | · | 25 | 1.9
COc1ccc(-c2nn(C)c(=O)c3ccccc23)cc1CNC(=O)C1CCCCC1 | -7 | 12% | · | · | 2.8
O=S(=O)(c1cccc(-c2csc(-c3cccnc3)n2)c1)N1CCCCC1 | -1 | 3% | -31 | -6 | 2.2
Cc1nnc(NCCO)c2ccccc12 | 5 | -10% | -15 | 5 | -4.2
CS(=O)(=O)N(Cc1ccc(C(=O)Nc2ccccc2Sc2ccccc2)cc1)c1ccccc1 | -5 | -6% | -24 | -1 | 0.3
O=Cc1cc2ccccc2nc1SCc1ccc(Cl)c(Cl)c1 | 4 | 13% | -39 | -26 | 3.3
CCOC(=O)C1CCN(Cc2c(O)c3ccccc3oc2=O)CC1 | -1 | 1% | · | 3 | -3.1
O=C(NOCc1ccccc1)c1ccccc1 | -13 | · | · | · | -0.6
O=C(O)c1ccc(-n2cccc2/C=C2/SC(=O)N(CC(=O)N3CCCC3)C2=O)cc1 | 0 | · | · | · | 4.1
CCN=C1S/C(=C\c2cc(Cl)c(OC)c(OC)c2)C(=O)N1CC | 7 | · | · | · | 2.4
COc1nnc(-c2ccc(C)c(S(N)(=O)=O)c2)c2ccccc12 | 2 | · | · | · | 0.0
COc1ccc(-c2cc(C(=O)Nc3ccc4c(c3)OCO4)no2)cc1 | 4 | · | · | · | 1.6
O=C(O)c1ccc(N/N=C/c2ccc3nccnc3c2)cc1 | 6 | 3% | · | · | 2.2
CN(C)c1nc(NCc2ccccc2)nc(N/N=C/c2ccc(Br)cc2)n1 | 0 | -4% | · | -1 | ·
CCN(CC(=O)Nc1ccc(NC(C)=O)cc1)C(=O)COc1ccccc1Cc1ccccc1 | 7 | · | · | · | 1.1
O=C(Nc1ccc(F)cc1)c1ccc(C(=O)N2CCCC(O)C2)cc1 (centres undefined) | 4 | · | · | · | -2.7
CCOc1ccccc1C(c1c(C)n(C)n(-c2ccccc2)c1=O)c1c(C)n(C)n(-c2ccccc2)c1=O | -3 | · | · | · | 0.3
COc1ccc(-n2nc3c(N4CCC(C(=O)NCc5cccc(C)c5)CC4)nnc(C)c3c2C)cc1 | 64 | · | · | · | -1.6
COc1cc(/C=C(/C#N)C(=O)Nc2ccc(C)cc2)ccc1Oc1nc(Cl)ncc1F | 7 | 83% | -13 | -2 | 0.7
COc1ccccc1N1CCN(C(=O)c2cc(-c3cccs3)on2)CC1 | -6 | 7% | -24 | 19 | 2.3
(more compounds)
SMILES | Mtb bLac sens | Mtb H37Rv | YopH PTP inh | Arbovirus anti | RecA splice inh | others
Cc1cc(C(=O)NCc2cccs2)ccc1[N+](=O)[O-] | 4 | 0% | -18 | -1 | 0.6
CSc1oc(-c2ccc(F)cc2)nc1S(=O)(=O)c1ccccc1 | 2 | -7% | -33 | -6 | -1.8 | Arbovirus anti repeat=-8
CCOC(=O)c1c(C)[nH]c(C(=O)OCC(=O)Nc2sc(C(=O)N(C)C)c(C)c2C(=O)OCC)c1C | 0 | · | · | · | -1.0
COc1cc(/C=C/c2ccc(O)cc2)cc(OC)c1 | -9 | 2%&-4% | · | -22 | 4.4
O=C1c2ccccc2C(=O)N1CCCc1nc(-c2ccc(Cl)cc2)no1 | 5 | -5% | -17 | 11 | -2.4 | Arbovirus anti repeat=0
Cc1ccc2nc(C)c(C)nc2c1N | -13 | 2% | -27 | -10 | -3.5
CC(C)C(NC(=O)c1ccccc1)C(=O)OCc1cc([N+](=O)[O-])cc2c1OCOC2 (centres undefined) | 4 | 2% | -8 | -5 | -1.6
O=C(NCc1cccnc1)C(=O)NCC(c1ccco1)N1CCN(c2ccccc2F)CC1 (centres undefined) | -4 | 4% | -43 | 0 | -0.4
COC(=O)c1ccc(NC(=S)NC(=O)c2cc(-c3ccccc3)nc3ccccc23)cc1 | 26 | · | -17 | 8 | 0.7
CCOC(=O)c1[nH]c2ccccc2c1NC(C)=O | -7 | -3% | · | · | 0.8
O=C(CSC1=NCCS1)N1CCN(c2ccccc2)CC1 | 46 | -7% | -22 | -19 | 7.4
CCCCCc1cccnc1 | -5 | -8% | · | · | -0.1
CCOC(=O)Cn1c(=O)cnc2ccccc21 | -8 | 0% | -11 | 4 | 1.5
CCOC(=O)N1CCN(C(=O)Cc2c(C(=O)O)n(C)c3ccccc23)CC1 | -1 | -5% | · | 3 | 0.7
CCCSc1nc(O)c(C(c2ccc(OC)c(O)c2)c2c(O)nc(SCCC)n(C)c2=O)c(=O)n1C | 2 | -5% | -36 | 1 | 0.2
c1ccc(C(c2ccccc2)N2CCN(Cc3nc(-c4cnccn4)no3)CC2)cc1 | -8 | 1% | · | · | -1.2
O=C(NCCS(=O)(=O)NC1CCCC1)c1ccccc1 | -8 | · | · | · | 0.6
O=C(Nc1ccc(Cl)cc1)N1CCCN(Cc2ccccc2F)C1 | -13 | 1% | 2 | -30 | 2.7
COc1cccc(C(=O)NNC(=O)C(=O)Nc2ccc(OC)cc2OC)c1 | 85 | · | · | · | 4.2
Cn1c(SCC(=O)CC(=O)Nc2ccccc2)nnc1-c1ccc(O)cc1 | -2 | -5% | -18 | 4 | ·
Cc1c(NC(=S)N/N=C/c2ccc([N+](=O)[O-])cc2O)c(=O)n(-c2ccccc2)n1C | 4 | -1% | · | · | -5.3
COc1ccc(N2CCN(/C(=N\S(=O)(=O)c3ccc(C)cc3)Nc3nc(C)cc(C)n3)CC2)cc1 | 3 | -5% | -4 | 7 | 0.5
COc1cc(C)ccc1OCCCCNCc1ccccc1 | -3 | · | · | · | 1.7
CCN(CC)CCCN(C(=O)c1ccc(F)cc1)c1nc(-c2ccc(OC)cc2)cs1 | -1 | · | · | · | 3.8
COc1ccc(/C=N/NC(=O)c2ccc(F)cc2)cc1CN1CCc2cc(OC)c(OC)cc2C1C (centres undefined) | 3 | -4% | · | -11 | 0.4
CCc1ccc(C(=O)NC(=S)Nc2ccc(N3CCOCC3)cc2)cc1 | 86 | 3% | · | -5 | 0.3
S=C(NCc1ccc(Cl)cc1)Nc1ccccc1 | 1 | 11% | -6 | 3 | 0.4
COc1cccc(/C=C/C(=O)OCC(=O)N2CCN(S(=O)(=O)c3ccc(Cl)cc3)CC2)c1 | -14 | · | · | · | -1.6
CCn1c(N)c(C(N)=O)sc1=S | 3 | -8% | 8 | 1 | -2.7
CCC(=O)Nc1cc2c3c(c1)CCN3C(=O)CC2 | -4 | · | · | · | -1.0
COc1ccc(CN2CC(C(=O)NCCCN3CCCCCC3)CC2=O)cc1 (centres undefined) | -14 | 7% | -43 | 0 | -0.3
NC(=O)C1CCN(C(=O)c2ccc3c(=O)n(Cc4ccco4)c(SCC(=O)c4ccccc4)nc3c2)CC1 | 2 | -2% | · | 8 | 2.4

High-throughput results from PubChem BioAssay.
